# HCMV NEC inh: inhibitors of HCMV UL50-UL53 interaction, biochemical, HTRF. HCMV UL50-UL53 nuclear egress complex (human cytomegalovirus). normalized percent inhibition. inhibition, % (concentration not given with the values). hit rate 0.15% among 190,000. AID 1918969, 2023;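 active = both replicates at 50% or more, plus weaker picks with an unusually low signal ratio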;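 note: stock transfer was 100 nL into about 20 µL; 0% = negative control wells and 100% = wells with untagged competitor protein; inactives centre near -12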
# An asterisk follows results filed as active; i = inactive; & = joins results of further samples. Not all compounds are listed. The share of hits here may be higher or lower than overall.
nr	smiles	HCMV NEC inh
1	O=C(O)C(CO)N1Cc2ccccc2C1=O (centres undefined)	0
2	CCC(=O)NCc1nc2ccccc2n1CC(C)C	-12
3	COc1ccc(C(=O)NCC(=O)O)cc1OC	-4
4	CCOC(=O)C(C)Oc1ccc(OCc2ccccc2)cc1 (centres undefined)	-6
5	Cn1sc(=Nc2ccccc2)nc1-c1ccccc1	-2
6	COc1ccc(NS(=O)(=O)c2cccc(C(=O)O)c2)cc1	9&-8
7	CCS(=O)(=O)N1CCN=C1SCc1cccc(C)c1	-6
8	O=C(OC[C@@H]1O[C@H]1c1ccccc1)Oc1ccc([N+](=O)[O-])cc1	-34&-34
9	COc1cccc(-c2csc(/C(C#N)=C\Nc3ccc(NC(C)=O)cc3)n2)c1	2
10	CC(=O)Nc1sc(C)nc1-c1ccccc1	-18
11	Cc1ccc([N+](=O)[O-])cc1S(=O)(=O)N(C)N=Cc1cnc2ccc(Br)cn12	-21&-55&-39&-41
12	C=CC(=O)Nc1ccc2ncnc(Nc3cccc(Br)c3)c2c1	i
13	CCc1cccc2c3c([nH]c12)[C@](CC)(CC(=O)O)OCC3	-20
14	COc1cccc(NC(=O)CCCN2C(=O)/C(=C\c3ccco3)SC2=S)c1	-4&-14
15	Cc1nc(S(=O)(=O)Cc2ccccc2Cl)nc2c1CCC2	-12
16	CC(C)n1c(COc2ccccc2)nc2ccccc21	-17
17	CN(CC(=O)N(Cc1ccc(C2CCCCC2)cc1)c1ccc(C(=O)O)cc1)S(=O)(=O)c1c(F)c(F)c(F)c(F)c1F	-28
18	CCOC(=O)c1[nH]c2cc(Cl)ccc2c1C(C(=O)NC(C)(C)C)N(C=O)Cc1ccc(Cl)cc1 (centres undefined)	-10
19	N#Cc1c(-c2ccccc2)no[n+]1[O-]	-11
20	CCCCCCCCCCCCCCCC(=O)NCCS(=O)(=O)O	-17&-17
21	O=C(Nc1ccccc1-c1nc2ccccc2o1)C1CCCCC1	-3
22	Cc1c(O)ccc2c(=O)c(Oc3ccccc3)c(C(F)(F)F)oc12	-16
23	CN(C)S(=O)(=O)c1ccc2nc(NC(=O)/C=C/c3ccccc3)sc2c1	-7
24	CCOC(=O)c1c(NC(=O)CCCC(=O)O)sc(C)c1C	-18
25	CC(=O)O/N=C1\C(c2c(O)[nH]c3cc(Br)ccc23)=Nc2ccccc21	-18

# Later entries
nr	smiles	HCMV NEC inh
26	CC(C)c1ccc(OCC(O)CN2CCCCC2)cc1 (centres undefined)	-29
27	COc1cccc(-n2ccnc2SCC(=O)NCc2ccccc2)c1	-19
28	CCOC(=O)c1ccc(OCC2NCCc3cc(OC)c(OC)cc32)cc1 (centres undefined)	-10
29	O=C(CCc1ccccc1)Nc1nnc(SCc2ccc(F)cc2)s1	3
30	Clc1ccc(C2(c3ccc(-c4cn[nH]c4)cc3)CCNCC2)cc1	13
31	O=C(Cc1ncc(C(F)(F)F)cc1Cl)NC1CCCC1	-4
32	CCOC(=O)c1c(-c2ccccc2)nc2ccccn12	-7
33	CNC(=O)CC12CC3CC(CC(C3)C1)C2	-24
34	CCOC(=O)c1c(N)c(C#N)c2n1CCCCC2	3
35	O=C1/C(=C\c2cccs2)SC(=S)N1CC(=O)N1CCCc2ccccc21	12&-14
36	Cc1ccc(-c2nc(SCC(=O)c3ccc(Cl)cc3)n[nH]2)cc1	5
37	COC(=O)c1ccc(NC(=O)CSc2ncnc3ccccc23)cc1	2
38	O=C(COc1ccccc1)Nc1ccc(S(=O)(=O)N2CCCC2)cc1	-2
39	O=C(O)CCCn1c(O)c(C2=c3ccccc3=NC2=O)sc1=S	-21
40	CN(C)S(=O)(=O)c1ccc(C(=O)NCCSc2c[nH]c3ccccc23)cc1	-2
41	O=C(O)/C=C/c1ccc(-c2cccc(C(F)(F)F)c2)o1	-42
42	O=C(CCn1c(=O)oc2ccccc21)NCc1cccs1	4
43	CCOC(=O)c1c(NC(=O)CSc2ncnc3ccccc23)sc2c1CCC2	3
44	N#Cc1ccccc1OCC(O)CNCCNC(=O)Nc1ccccc1 (centres undefined)	-13
45	O=C(Nc1ccc(-c2csc(Nc3ccc(Cl)cc3)n2)cc1)c1cc([N+](=O)[O-])cc(C(F)(F)F)c1	3
46	CCNC(=O)c1noc(-c2cc(C(C)C)c(O)cc2O)c1-c1ccc(CN2CCOCC2)cc1	-11
47	Cn1c(CNC(=O)c2ccccc2)nc2ccccc21	-12
48	CSc1nc2ccc(NC(=O)c3ccc(N(C)C)cc3)cc2s1	11
49	CC12CCC(C/C1=N/O)C2(C)CBr (centres undefined)	-3
50	C=C(C)Cn1c(CNC(=O)c2ccc(F)cc2)nc2ccccc21	-5

# Later entries.
nr	smiles	HCMV NEC inh
51	O=C(NS(=O)(=O)c1ccc(Br)s1)c1ccc(Cl)cc1Cl	2
52	COc1ccc(C(=O)NCc2nnc(SC)n2C2CCCCC2)cc1	-16
53	C=C(C)Cn1c(COc2ccc(Cl)cc2)nnc1SCC(=O)O	-12
54	CCCOc1ccc2c(-c3ccccc3)cc(=O)oc2c1	-25
55	CCCc1noc(CN(C)C(=O)CCc2ccc(C)c(C)c2)n1	5
56	N#Cc1cnc2cnc(NCc3cccnc3)cc2c1Nc1ccc(F)c(Cl)c1	28
57	CCOc1ccc2nc(NC(=O)CCc3ccccc3)sc2c1	-8
58	Cc1nc2ccccc2n1S(=O)(=O)N(C)C	-3
59	CC(C)N1C(=O)C2ON(c3ccccc3)C(c3cccs3)C2C1=O (centres undefined)	-4
60	O=C(Nc1nnc(-c2ccccc2Cl)s1)C1CC1	4
61	CCCCC/C=C\C/C=C\C/C=C\CCCCCCC(=O)OCC	-21&-21
62	CCCCC[C@H](O)/C=C/[C@H]1[C@H](O)CC(=O)[C@@H]1C/C=C\CCCC(=O)OCC(O)CO (some centres undefined)	-14&-14
63	O=S1(=O)CCC(n2nnnc2-c2ccccc2)C1 (centres undefined)	-6
64	O=P(O)(O)O[C@@H]1[C@H](O)[C@H](O)[C@@H](OP(=O)(O)O)[C@H](OP(=O)(O)O)[C@H]1O	-8&-8
65	O=C1NC(=S)S/C1=C/c1ccc(-c2cccc(C(F)(F)F)c2)o1	-30
66	O=C(Nc1cccc(-c2csc(Nc3cccc(C(F)(F)F)c3)n2)c1)c1cc([N+](=O)[O-])cc(C(F)(F)F)c1	-12
67	CCOC(=O)c1cnc2c(cnn2C)c1Cl	-3
68	CS(=O)(=O)N1CCN=C1SCc1ccc(Cl)c(Cl)c1	-7
69	Clc1ccc(CSc2cnc3ccccc3n2)cc1	-9
70	COc1ccc(/C=C2\SC(=O)N(C)C2=O)cc1	-30
71	CCc1cccc(CC)c1N(COC)C(=O)Cn1cnc2ccccc21	2
72	O=C1NC(=Nc2cccc(C(F)(F)F)c2)S/C1=C/c1cccs1	-9&4
73	COc1ccc(OC)c2nc3c(cc12)CCCCC3	-15
74	CCn1ccnc1CN(C)Cc1ccc(-c2nc(C(F)(F)F)c(C)c(=O)[nH]2)cc1	-6
75	CCC(C)NC(=O)c1ccc2c(c1)ncn2-c1ccc(OC)cc1 (centres undefined)	-17

# (cont.)
nr	smiles	HCMV NEC inh
76	Cc1nnc(NC(=O)CSC2CCCCC2)s1	-15
77	CSc1nnc(NC(=O)COc2ccc(Cl)cc2Cl)s1	-21
78	Cc1ccc(/C=C/C(=O)O)cc1S(=O)(=O)NCc1cccnc1	-3
79	Cc1ccc2c(C(=O)N3CCCC3)cc(-c3cnn(C(C)C)c3)nc2c1	-12
80	O=C(NCC1(c2nc(-c3ccccc3)cs2)CCOCC1)c1cccc(-c2noc(C(F)(F)F)n2)c1	8
81	Cc1ccccc1C(=O)Nc1nnc(SCC(=O)Nc2ccc(F)cc2)s1	2
82	O=C(O)COc1cccc(-c2ocnc2-c2nc(-c3ccccc3)c(-c3ccccc3)o2)c1	-41
83	Cn1cc(C(O)C(F)(F)F)c2ccccc21 (centres undefined)	-1
84	O=[N+]([O-])c1cn2c(n1)OCC(OCc1ccc(OC(F)(F)F)cc1)C2 (centres undefined)	-52
85	CSc1nc2ccccc2c(=O)[nH]1	3
86	O=C(O)CCCC(=O)Nc1cccc2ccccc12	-18
87	COc1nc(N)nc2c1ncn2C1OC(CO)C(O)C1O (centres undefined)	-8
88	O=C1N[C@H](Cc2ccc(O)cc2)C(=O)N2CCN(C(=O)c3cccc4ccccc34)C[C@H]12	-1
89	O=C(O)CC(c1ccccc1Br)N1Cc2ccccc2C1=O (centres undefined)	3
90	COc1ccc(NC(=O)C23CCC(C)(C(=O)O2)C3(C)C)cc1 (centres undefined)	2
91	CN(C)c1ccc(NC(=O)CC2SC(N)=NC2=O)cc1 (centres undefined)	-13
92	O=C(c1ccnc(Cl)c1)N1CCc2[nH]nc(C3CCC3)c2C1	-1&-1
93	COc1ccc(C(C)=O)c(O)c1	-6
94	C=CC(=O)Nc1cccc(N(C)c2ccnc(Nc3ccc(N4CCN(C)CC4)cc3)n2)c1	1
95	CC(c1ccccc1)n1c(CCCO)nc2ccccc21 (centres undefined)	-7
96	COc1ccc(C2CC(=O)N(CC(N)=O)c3ccccc3S2)cc1OC (centres undefined)	-19
97	CC(C)c1nc(Cn2cnc3ccsc3c2=O)cs1	-15
98	COc1cccc2[nH]c(=O)c(-c3ccccc3)cc12	-8
99	CN(C)CCn1nnnc1SCC1=C(C(=O)O)N2C(=O)[C@@H](NC(=O)Cc3csc(N)n3)[C@H]2SC1	0
100	COc1ccc(OC/C(N)=N/C(=S)Nc2cccc(C(F)(F)F)c2)cc1	14

# Carrying on.
nr	smiles	HCMV NEC inh
101	CC(C)N1C(=O)/C(=C/c2ccc(Br)cc2)SC1=S	2
102	CC(C)CC(CC(=O)NO)C(=O)NC(Cc1ccc2ccccc2c1)C(=O)NC(C)C(=O)NCCN (centres undefined)	-6
103	CC1=C(C(=O)N2CCOCC2)C(c2ccccc2F)C2=C(CC(C)(C)CC2=O)N1 (centres undefined)	1
104	CCCCC[C@H](O)/C=C/[C@@H]1[C@@H](C/C=C\CCCC(=O)O)[C@H](O)C[C@H]1O	-12&-12&-12&-12&-16
105	CCSc1nnc(NC(=O)C23CC4CC(CC(C4)C2)C3)s1	-5
106	O=C(N=C1SC2CS(=O)(=O)CC2N1c1ccccc1)c1ccccc1 (centres undefined)	1&-1
107	COc1nc(N)nc2c1ncn2C1O[C@H](CO)[C@@H](O)[C@@H]1O (some centres undefined)	-68
108	Cc1ccc2c(c1)N(CCCC(=O)O)C(=O)CO2	-9
109	O=C1CCCN1c1ccc(OC(F)(F)F)cc1	-6
110	CCOc1ccc(NC(=O)c2sc3nc[nH]c(=O)c3c2C)cc1	-22
111	Cc1nn(-c2cc(Cl)ccc2Cl)c(N)c1-c1nc(-c2ccccc2)cs1	-2
112	CCOP(=O)(c1ccccc1)c1nc(-c2ccc(Cl)cc2)oc1NC (centres undefined)	-11
113	Cc1ccc(S(=O)(=O)N(C)Cc2ccccc2)cc1C(=O)O	-12
114	O=C(Nc1nccs1)c1c(O)c2ccccc2[nH]c1=O	-3
115	Cc1ccc(C)c2[nH]c(=O)c(CCNS(C)(=O)=O)cc12	-9
116	O=c1[nH]c2ccccc2nc1Cc1ccccc1	-19
117	Brc1ccc(-c2cn3ccccc3n2)cc1	-4
118	O=C1Nc2cc(C(F)(F)F)ccc2N2CCCCC12 (centres undefined)	-13
119	CC(C)CCOc1ccc(CN)cc1	6&-2
120	COc1ccc(COCC(O)CN2C(C)CCCC2C)cc1OC (centres undefined)	-11
121	O=C1OC2(c3ccc(O)cc3Oc3cc(OS(=O)(=O)c4c(F)c(F)c(F)c(F)c4F)ccc32)c2ccccc21 (centres undefined)	-22&-22
122	CC(C)NS(=O)(=O)c1ccc(NC(=O)c2ccccn2)cc1	-2
123	CC(C)(C)c1csc(NC(=O)C2=COCCO2)n1	-5
124	CCOc1ccccc1NC(=O)CCCN1C(=O)/C(=C\c2ccco2)SC1=S	-4
125	O=C(COC(=O)c1ccc(O)cc1O)c1ccccc1	-1

# Grouped by structure, the compounds so far containing a furan ring, fused or not (four)
nr	smiles	HCMV NEC inh
14	COc1cccc(NC(=O)CCCN2C(=O)/C(=C\c3ccco3)SC2=S)c1	-4&-14
41	O=C(O)/C=C/c1ccc(-c2cccc(C(F)(F)F)c2)o1	-42
65	O=C1NC(=S)S/C1=C/c1ccc(-c2cccc(C(F)(F)F)c2)o1	-30
124	CCOc1ccccc1NC(=O)CCCN1C(=O)/C(=C\c2ccco2)SC1=S	-4

# Sorted by SMILES length (low to high): part of the list above
nr	smiles	HCMV NEC inh
123	CC(C)(C)c1csc(NC(=O)C2=COCCO2)n1	-5
114	O=C(Nc1nccs1)c1c(O)c2ccccc2[nH]c1=O	-3
121	O=C1OC2(c3ccc(O)cc3Oc3cc(OS(=O)(=O)c4c(F)c(F)c(F)c(F)c4F)ccc32)c2ccccc21 (centres undefined)	-22&-22

# Structural class: the compounds so far with a tert-butyl group (two)
nr	smiles	HCMV NEC inh
18	CCOC(=O)c1[nH]c2cc(Cl)ccc2c1C(C(=O)NC(C)(C)C)N(C=O)Cc1ccc(Cl)cc1 (centres undefined)	-10
123	CC(C)(C)c1csc(NC(=O)C2=COCCO2)n1	-5

# (list continues)
nr	smiles	HCMV NEC inh
126	COC(=O)CNC(c1ccccc1)c1cc(Cl)ccc1NC(=O)c1ccc(OC)cc1 (centres undefined)	-5
127	CCC(C(=O)O)N1C(=O)/C(=C\C(C)=C\c2ccccc2)SC1=S (centres undefined)	-23
128	CN(C)CCSSCCNC(=O)C1CCN(C(=O)CSc2ccc(Cl)cc2)CC1	-3
129	O=C1CS(=O)(=O)CN1c1ccc(C(F)(F)F)cc1	-12
130	COC(=O)c1sc(-c2ccccc2)cc1NC(=O)C1CCCCC1	-11
131	C/C(=C\C(=O)OCCCCCCCCC(=O)O)C[C@@H]1OC[C@H](C[C@@H]2O[C@H]2[C@@H](C)[C@H](C)O)[C@@H](O)[C@H]1O	-32
132	CC(C)(C)OC(=O)N1CCNC(=O)C1	-11
133	C=CC(=O)N1CCN(Cc2ccc(C(=O)Nc3ncc(Sc4cc(C(=O)N5CCN(C(C)=O)CC5)c(OC)cc4C)s3)cc2)CC1	13
134	COc1ccc(/C=C2/SC(=S)N(C(C)C(=O)O)C2=O)cc1OC (centres undefined)	-33
135	O=C(Nc1ncn[nH]1)C1c2ccccc2Oc2ccccc21	-17
136	COc1ccc(C(=O)Nc2nc3ccc4ccccc4c3s2)cc1	-20

# High-throughput results deposited in PubChem BioAssay by ICCB-Longwood Screening Facility, Harvard Medical School.
